Screens deposited in PubChem by several laboratories.
UUG fidelity = alters start codon recognition fidelity in yeast; S. cerevisiae UUG-firefly luciferase reporter, luminescence/redox ratio; activity score, % at 18.7 µM; actives 0.13% (n = 350,000); AID 602363;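 active = replicate mean at a twofold rise or more, about +100% in these data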;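 also: firefly luciferase made from a UUG start codon reports start codon fidelity; reporter light over untreated wells divided by growth signal over untreated wells; some hits fall short of that in this replicate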
MT1-MMP act inh = inhibitors of human MT1-MMP activation. actives 0.061% (n = 360,000). GFP/RFP ratio change, % at 20 µM. P50281. AID 651647. HT1080 RFP-PRO-GFP cells, GFP/RFP ratio fluorescence, overnight; percent of plate control window, DMSO zero;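 active = GFP/RFP ratio change of at least 30% with cell ATP level not reduced by more than half and red fluorescence within 50% of control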; also: strong numbers were not always called active
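Read-out: GFP/RFP fluorescence ratio; Test system: RFP-PRO-GFP reporter HT1080 cells; Compound dosing: single-point 20 µM compound, 1% DMSO; Times: overnight compound exposure at 37 °C.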
HIV Env fusion = HIV envelope-mediated fusion inhibition; inhibition, % at 12.3 µM; HeLa-JRFL Env/CEM21 cell fusion, luciferase; actives 1.1% (n = 360,000);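 active = mean replicate inhibition score of at least 50 and every replicate individually at or above 50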;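 also: 0% = plate neutral controls and 100% = maraviroc near 300 nM; one replicate is shown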
eIF4H inh = inhibitors of RNA binding by human eIF4H; Q15056; eIF4H fluorescence polarization binding assay; inhibition, % at 35 µM; actives 0.94% (n = 290,000); AID 2012;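 active = 50% or more with normal probe brightness, or confirmed in later tests; about a fifth of its hits are not listed in these tables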;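 also: calls also rest on retests at 20 µM and on dose response follow-up; 0% = protein and probe with vehicle and 100% = probe without protein; strong numbers were not always called active; many hits fall short of the cut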
Rce1 inhib = yeast Ras-converting enzyme inhibition. calls only. actives 0.27% (n = 290,000). yeast membranes, quenched prenylated peptide cleavage fluorescence. Q03530;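 active = fall in fluorescence gain of 50% or more versus controls, with final raw signal at or below 3038400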;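 also: plate controls were neutral control wells for no effect and wells lacking membranes for full effect; tested at 10 µM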
Target sequence (Q03530 whole entry, looked up): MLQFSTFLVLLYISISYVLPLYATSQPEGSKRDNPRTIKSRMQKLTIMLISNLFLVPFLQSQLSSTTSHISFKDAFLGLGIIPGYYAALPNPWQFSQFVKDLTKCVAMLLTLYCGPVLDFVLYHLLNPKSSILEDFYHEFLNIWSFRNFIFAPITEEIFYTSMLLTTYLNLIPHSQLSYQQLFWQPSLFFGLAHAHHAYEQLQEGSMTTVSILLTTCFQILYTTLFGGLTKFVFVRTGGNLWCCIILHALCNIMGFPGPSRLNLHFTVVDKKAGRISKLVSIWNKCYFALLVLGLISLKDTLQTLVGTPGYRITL
CSC inhib = blocks cancer stem cells; actives 1.1% (n = 300,000); inhibition, % at 7.5 µM; AID 2717; cancer stem cell-like cells viability, luminescence;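 active = mean at 75% or more and at least half the replicates too; tested in HMLE shEcad cells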;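 also: 0% = median of negative and 100% = median of positive control wells; the first replicate is given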
PABP polyA inh = PABP-poly(A) binding inhibition | P11940 | actives 1% (n = 290,000) | PABP-poly(A) RNA binding, fluorescence polarization | inhibition, % at 35 µM;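 active = 50% or more with normal probe brightness, or confirmed in later tests; about a fifth of its hits are not listed in these tables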;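 also: calls also rest on retests at 20 µM and on dose response follow-up; controls were probe without protein and protein plus probe with vehicle; some compounds called inactive have numbers as strong as hits; many hits fall short of the cut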
Target sequence (P11940 whole entry, looked up): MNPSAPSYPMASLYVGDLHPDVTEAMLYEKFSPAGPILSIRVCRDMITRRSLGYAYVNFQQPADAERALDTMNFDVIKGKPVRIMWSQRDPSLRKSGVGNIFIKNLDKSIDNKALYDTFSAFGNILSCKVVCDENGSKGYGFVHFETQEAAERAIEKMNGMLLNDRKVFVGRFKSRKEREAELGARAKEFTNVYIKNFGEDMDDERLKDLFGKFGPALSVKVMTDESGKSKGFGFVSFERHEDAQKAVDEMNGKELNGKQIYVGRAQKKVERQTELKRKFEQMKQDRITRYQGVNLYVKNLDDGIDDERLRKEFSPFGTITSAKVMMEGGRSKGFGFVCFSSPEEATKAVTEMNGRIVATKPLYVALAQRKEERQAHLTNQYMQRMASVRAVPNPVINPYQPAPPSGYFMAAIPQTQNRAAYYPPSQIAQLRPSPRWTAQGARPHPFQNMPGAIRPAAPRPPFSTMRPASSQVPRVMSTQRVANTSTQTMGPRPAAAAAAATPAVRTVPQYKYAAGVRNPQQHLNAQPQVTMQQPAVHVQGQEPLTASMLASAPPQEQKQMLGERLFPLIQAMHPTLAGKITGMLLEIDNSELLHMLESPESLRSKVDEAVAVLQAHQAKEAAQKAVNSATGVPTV
MT1-MMP act inh RFP = also measured in MT1-MMP act inh; calls as there; RFP signal change, %; measured here: RFP expression control read;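 0 = vehicle wells; hits needed this value within 50% of zero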
An asterisk follows results filed as active; i = inactive; x = no result given; & = joins results of further samples; [ ] = another dose, or the depositor's remark. A portion of the library, so the mix of outcomes need not match the whole.

SMILES	UUG fidelity	MT1-MMP act inh	MT1-MMP act inh RFP	HIV Env fusion	eIF4H inh	Rce1 inhib	CSC inhib	PABP polyA inh
Cc1cc2oc(=O)cc(Cn3ncc(Cl)c(Cl)c3=O)c2cc1Cl	5.4	-16.5	-24.1	x	9.8	i	79.9*	0.1
Cc1cc(C)n(C(=O)c2ccc(C)c(S(=O)(=O)N3CCCCC3)c2)n1	-10.5	-10.0	-0.7	-32.4	-2.0	i	x	-5.0
CCc1ccccc1NC(=O)COc1ccc2c(c1)OCO2	-15.5	1.9	-1.3	-1.1	-9.8	i	-3.2	-6.0
CC[C@@H](C)[C@H](NC(=O)Cc1c(C)c2cc3c(C)coc3c(C)c2oc1=O)C(=O)O	-13.8	-1.4	3.1	-6.8	-0.5	i	3.9	13.2
CC(=O)N1N=C(c2ccc(Cl)cc2)CC1c1ccco1 (centres undefined)	x	-4.3	-4.2	-5.6	2.4	i	12.3	9.6
Cc1ccc(-c2nc3cnccn3c2Nc2ccc3c(c2)OCO3)o1	-15.5	4.3	1.7	4.5	25.1	i	-4.0	-10.6
Cc1ccc(CNC(=O)CS(=O)(=O)Cc2nc(-c3ccccc3F)oc2C)cc1	15.7	-6.6	-0.6	x	-1.6	i	-7.8	-10.6
O=C(NNC(=O)c1ccc([N+](=O)[O-])cc1)c1ccc(Br)cc1	-13.8	0.9	-0.8	8.5	-6.3	i	-5.6	-3.0
CCc1nnc(NC(=O)COc2ccc3c(c2)OCO3)s1	x	2.1	9.0	-25.8	-9.8	i	-5.3	-2.4
C[C@@H]1CN([C@H](C)CO)C(=O)CCCn2cc(nn2)CO[C@H]1CN(C)C(=O)C1CCCCC1	8.4&-13.3	-0.5	4.3	5.3[16.7 µM]	x	x	x	x
O=C(Nc1ccc(F)cc1)C1C2CCC3C(CCC21)C3(Cl)Cl (centres undefined)	-6.3	3.3	-1.5	17.2	1.8	i	-1.9	1.0
COc1ccc(C2C(=O)N(C3CCCCC3)CC(=O)N2Cc2ccco2)cc1 (centres undefined)	x	-1.4	1.1	x	4.6	i	-10.6	5.5
Cc1nn2c(N3CCN(C)CC3)cc(C(C)(C)C)nc2c1-c1ccccc1	5.0	-6.1	-4.2	21.9	-2.6	i	25.1	-0.6
CCOC(=O)C1(CC2CC2)CCN(S(=O)(=O)/C=C/c2ccccc2)CC1	x	-6.1	-4.9	-9.6	-3.2	i	4.5	-5.3
Cc1ccc(S(=O)(=O)Oc2ccc(/C=C3/N=C(c4ccccc4)OC3=O)cc2)cc1	-0.8	5.9	7.8	28.5	-4.7	i	x	2.0
C#CCOCCOCCOCCNc1nc(N2CCOCC2)nc(N2CCN(C(=O)CCCCCCCCCCNC(=O)[C@@H]([C@H](C)O)n3cc(C)nn3)CC2)n1	-2.2	-6.0	1.9	-4.6	x	x	-9.5	x
Cc1ccc(C(C)C)c(OCC(O)CN2CCOCC2)c1 (centres undefined)	x	3.3	3.2	x	-2.9	i	-4.2	33.0
COc1ccccc1-n1nnnc1SCC(=O)Nc1ccc(C)c(N)c1	-1.8	0.2	-4.9	-2.9	-5.6	i	0.4	2.5
CC(C)C[C@H](NC(=O)C1(c2ccccc2)CCN(C(=O)OC(C)(C)C)CC1)C(=O)N1CCC[C@H]1C(=O)O	-5.6	-2.9	-0.2	7.3	-10.0	i	-7.6	-1.7
O=C(CSc1nc(-c2ccccc2)c(-c2ccccc2)[nH]1)Nc1nccs1	-24.6	-3.8	-4.7	x	10.1	i	x	-4.0
Cn1c(CC(=O)Nc2ccccc2)c(Sc2ccccc2)c2ccccc21	-11.5	-2.2	-0.2	8.1	-5.0	x	-5.5	-11.8
Cc1ccc(S(=O)(=O)CCC(=O)c2ccc(F)cc2)cc1	-15.8	-0.7	2.0	6.4	-11.1	i	14.4	4.0
Cc1cc(N2CCN(C(=O)OC(C)(C)C)CC2)n2ncnc2n1	-5.4	3.8	3.2	x	0.2	i	-2.8	-2.5
CCOc1ccc(C(=O)C2CCN(CC(=O)Nc3nccs3)CC2)cc1	-8.9	3.1	-4.8	7.1	-2.3	i	2.1	-9.4
CC1CCN(S(=O)(=O)c2ccc3c(c2)N(CC(=O)NCCCN2CCCCC2)C(=O)CS3)CC1	1.4	-2.5	-0.4	4.6	x	i	-14.6	x
CC(C)CNC(=S)NC1CCCC1	-21.2	3.0	1.7	-27.6	0.8	i	-3.8	8.2
CCOC(=O)c1c(NC(=O)C2C3C=CC(CC3)C2C(=O)O)sc(C)c1C (centres undefined)	x	-5.9	-1.8	-16.2	7.1	i	13.1	0.9
CC(=O)N1CN(CCCn2ccnc2)Cc2c1sc1c2CCCC1	-13.5	9.3	5.6	x	-4.8	i	3.3	4.0
CCOC(=O)CC1NC(=O)c2ccccc21 (centres undefined)	-11.8	2.5	0.9	0.6	6.6	x	x	1.6
CCC(=O)c1ccc(OCC(=O)Nc2ccc(N3CCCCC3)cc2)cc1	-34.2	8.7	2.1	x	x	x	-5.4	x
O=C(NCc1cccs1)c1cc(C2CC2)on1	-26.0	0.1	3.2	2.6	6.8	i	-12.7	-8.5
O=S(O)OC1CS(=O)(=O)CC1c1ccccc1 (centres undefined)	-17.8	4.4	4.1	2.4	8.4	i	1.3	2.1
CC(NC(=O)NC1CCCCC1)c1ccc2c(c1)OCO2 (centres undefined)	x	-0.8	0.9	11.0	2.9	x	-5.0	-7.7
COc1ccc(CNC(=O)c2cncc(Br)c2)cc1	-14.2	-0.3	-3.1	17.7	4.4	i	-17.3	-8.2
NC(Cc1ccc(Cl)cc1)c1csc(Nc2nccc(C(F)(F)F)n2)n1 (centres undefined)	-1.4	1.8	-0.3	2.4	x	x	x	x
Cc1ccc(S(=O)(=O)NC(=O)Nc2ccc(F)c(F)c2)cc1	-7.2	1.3	0.7	-7.3	5.2	i	10.3	11.5
CCOC(=O)c1ccc(NC(=O)c2nc[nH]c2C(=O)N[C@@H](C)CO)cc1	-16.4	5.7	4.5	4.4	x	x	x	x
CN(C)c1nc(NCc2ccccc2)nc(SCC(=O)Nc2ccccc2)n1	-8.5	3.3	-20.4	x	0.2	x	-5.0	-4.1
CCC(C)CCCCCCCCCCC(=O)O (centres undefined)	-17.9	1.1	3.7	x	x	i	-7.5	x
Clc1ccccc1Nc1nc(NCC2CC2)nc2ccsc12	-7.5	-6.5	-15.8	12.9	x	x	x	x
COc1ccccc1OCC(=O)Nc1ccccn1	-19.8	1.6	-3.6	-145.2	-0.3	i	12.4	5.7
Cc1ccc(OCC(O)CNCc2ccccc2)cc1C (centres undefined)	-9.6	1.3	-1.9	-2.7	-3.1	i	12.3	-5.3
CCN(CC)S(=O)(=O)c1ccc(O)c(NC(=O)c2ccc(N3CCOCC3)c([N+](=O)[O-])c2)c1	-5.6	6.1	-10.3	18.3	7.4	i	14.4	-3.5
CCOC(=O)/C(C#N)=C/c1cc2cc(C)c(C)cc2nc1Cl	-20.0	-12.1	5.0	-21.0	2.5	i	2.8	11.5
N/C(=N\OC(=O)Cc1ccccc1[N+](=O)[O-])c1ccccn1	x	1.6	2.7	-3.7	0.8	i	5.3	6.9
CC(C)CC1C(=O)N(Cc2cn(CC3CCCCC3)nn2)CCS(=O)(=O)N1Cc1ccc(-c2ccc(Cl)c(Cl)c2)cc1 (centres undefined)	-4.6	-5.0	-5.1	-25.4	x	x	x	x
O=C(COC(=O)c1ccc(Br)o1)Nc1ccc2[nH]c(=O)[nH]c2c1	-7.2	1.4	-1.7	x	x	x	-12.1	x
Cc1cc(C)c2nc(-c3ccccn3)cc(C(=O)Nc3cc(C)on3)c2c1	-25.3	2.2	1.6	x	-4.4	x	1.0	10.5
O=C1NC(=O)c2c(NC(=O)C3CCCO3)cccc21 (centres undefined)	-8.7	-1.2	0.0	x	-2.8	i	-11.0	-15.4
CCCCNC(=S)NNC(=O)CCn1nc(C)c(Br)c1C	-32.5	-10.0	-4.6	-11.4	2.6	i	3.3	-10.8
(list continues)
SMILES	UUG fidelity	MT1-MMP act inh	MT1-MMP act inh RFP	HIV Env fusion	eIF4H inh	Rce1 inhib	CSC inhib	PABP polyA inh
CC/C(C)=N/Oc1nc(C)cc(C)n1	-14.4	3.5	0.0	-8.7	-6.2	x	4.2	-0.9
O=C(Nc1ccc(Cl)cn1)C1CCCN1S(=O)(=O)c1ccc(Cl)cc1 (centres undefined)	x	1.7	-6.3	x	-1.1	i	-19.4	-0.5
CC(=O)Nc1ccc(S(=O)(=O)NCCc2ccccc2)cc1	-10.0	1.0	-5.4	4.7	-5.3	i	-7.4	5.3
O=[N+]([O-])c1ccc2c(c1)C(=Nc1ccccc1)c1ccccc1-2	-9.7	-5.6	-0.8	-29.9	x	x	x	x
Oc1cccc(NC(=S)N=Nc2c(O)[nH]c3ccccc23)c1	-25.5	7.4	-1.9	7.2	3.0	i	8.8	9.3
CCCCn1c(N)c(N(CCC(C)C)C(=O)c2cccc(S(=O)(=O)N3CCN(C)CC3)c2)c(=O)[nH]c1=O	-12.2	-3.4	0.3	-50.2	x	x	-16.3	x
Cc1cccc(/C=C2\CCC(=C3SCCCS3)C2=O)c1	x	-0.2	-0.7	x	1.2	i	-16.0	6.7
CC(C)[C@H](NC(=O)c1ccc(Cl)cc1Cl)C(=O)NNC(=O)c1ccco1	3.2	-3.6	-3.2	-7.3	x	x	-18.9	x
CC(=O)OCC1(C)CN(c2ccccc2)N(C(=O)c2ccc(C(C)(C)C)cc2)C1=O (centres undefined)	x	7.6	-12.8	-6.9	-3.0	i	x	-3.9
COc1ccc(N(CC(=O)Nc2ccc(OC)cc2OC)S(=O)(=O)c2ccccc2)cc1	x	-4.9	-11.8	4.2	-6.4	i	30.5	-6.9
COc1cc(C(O)c2nc(-c3ccccc3)cs2)ccc1F (centres undefined)	-4.4	-3.4	-17.0	10.4	x	x	x	x
COc1ccc(F)cc1S(=O)(=O)NCc1cc(=O)n(C)c(=O)n1C	-18.3	-2.1	3.3	-2.0	0.6	i	3.5	2.3
COc1cc2cc(C(=O)Nc3ccc4c(c3)OCCO4)[nH]c2cc1OC	-63.3	2.5	-2.6	-24.4	x	i	19.6	x
Cc1ccc(C(=O)NNC(=O)CSc2nnc(-c3ccncc3)n2C)cc1	-30.8	4.1	4.8	1.4	2.1	i	2.8	0.7
O=C(Nc1ccc(-c2cn3c(n2)SCC3)cc1)c1ccc2ccccc2n1	x	1.1	-20.2	13.9	-5.3	i	-6.9	3.7
COC(=O)C1=C(C)OC(N)=C(C#N)C1c1c(C)nn(-c2ccccc2)c1Cl (centres undefined)	-11.9	-1.9	1.1	-93.0	13.4	i	-2.6	10.9
O=C(CCN1C(=O)c2cccc3cccc(c23)C1=O)N1CCN(c2ccccc2F)CC1	x	-2.8	1.5	-29.4	-0.7	i	6.5	-1.8
O=C(Cc1cccs1)Nc1nc2ccccc2s1	2.8	16.0	-8.7	x	-5.7	i	2.3	-11.2
C[C@H](CO)N1C[C@H](C)[C@H](CN(C)C(=O)Nc2ccc(C(F)(F)F)cc2)Oc2ncc(-c3cccnc3)cc2C1=O	-1.9&3.2&7.9	0.2	3.3	-9.6&0.6[16.7 µM]	x	x	x	x
Cc1cc(C)c(C(N)=O)c(NC(=O)Nc2ccccc2Cl)n1	-18.3	-1.7	0.7	-132.4	-6.5	i	-0.8	2.5

Entries above containing a tert-butyl group:
SMILES	UUG fidelity	MT1-MMP act inh	MT1-MMP act inh RFP	HIV Env fusion	eIF4H inh	Rce1 inhib	CSC inhib	PABP polyA inh
Cc1nn2c(N3CCN(C)CC3)cc(C(C)(C)C)nc2c1-c1ccccc1	5.0	-6.1	-4.2	21.9	-2.6	i	25.1	-0.6
CC(C)C[C@H](NC(=O)C1(c2ccccc2)CCN(C(=O)OC(C)(C)C)CC1)C(=O)N1CCC[C@H]1C(=O)O	-5.6	-2.9	-0.2	7.3	-10.0	i	-7.6	-1.7
Cc1cc(N2CCN(C(=O)OC(C)(C)C)CC2)n2ncnc2n1	-5.4	3.8	3.2	x	0.2	i	-2.8	-2.5
CC(=O)OCC1(C)CN(c2ccccc2)N(C(=O)c2ccc(C(C)(C)C)cc2)C1=O (centres undefined)	x	7.6	-12.8	-6.9	-3.0	i	x	-3.9
